ID4 SMM – binders of human ID4 protein, primary screen, biochemical, small molecule microarray, single point | Flag-ID4 binding, fluorescence F/B | calls only | 31,000 compounds, 1.2% hits;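 active = spot signal over background at p below 0.07 in all four prints; compounds were printed on slides so no solution concentration is given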;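 also: a binder raises fluorescence above local background on the spot; about 2 pmol printed per array spot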
Target sequence (P47928 whole entry, looked up): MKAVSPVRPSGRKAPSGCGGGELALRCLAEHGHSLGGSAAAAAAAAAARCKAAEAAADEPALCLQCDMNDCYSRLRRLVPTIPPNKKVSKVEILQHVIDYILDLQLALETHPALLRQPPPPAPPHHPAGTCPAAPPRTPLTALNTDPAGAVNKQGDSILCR
STAT3 binder – STAT3 binders, primary screen, biochemical, small molecule microarray, single point, set 2; Signal transducer and activator of transcription 3 (Homo sapiens), P40763; His-STAT3 binding, anti-His fluorescence; calls only; 17,000 compounds, 0.2% hits;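 active = compounds whose four printed spots each show fluorescence over background unusually high for their array block, chance value under 7%; compounds were printed on slides so no solution concentration is given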;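 also: about 2 pmol printed per array spot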
Target sequence (P40763 whole entry, looked up): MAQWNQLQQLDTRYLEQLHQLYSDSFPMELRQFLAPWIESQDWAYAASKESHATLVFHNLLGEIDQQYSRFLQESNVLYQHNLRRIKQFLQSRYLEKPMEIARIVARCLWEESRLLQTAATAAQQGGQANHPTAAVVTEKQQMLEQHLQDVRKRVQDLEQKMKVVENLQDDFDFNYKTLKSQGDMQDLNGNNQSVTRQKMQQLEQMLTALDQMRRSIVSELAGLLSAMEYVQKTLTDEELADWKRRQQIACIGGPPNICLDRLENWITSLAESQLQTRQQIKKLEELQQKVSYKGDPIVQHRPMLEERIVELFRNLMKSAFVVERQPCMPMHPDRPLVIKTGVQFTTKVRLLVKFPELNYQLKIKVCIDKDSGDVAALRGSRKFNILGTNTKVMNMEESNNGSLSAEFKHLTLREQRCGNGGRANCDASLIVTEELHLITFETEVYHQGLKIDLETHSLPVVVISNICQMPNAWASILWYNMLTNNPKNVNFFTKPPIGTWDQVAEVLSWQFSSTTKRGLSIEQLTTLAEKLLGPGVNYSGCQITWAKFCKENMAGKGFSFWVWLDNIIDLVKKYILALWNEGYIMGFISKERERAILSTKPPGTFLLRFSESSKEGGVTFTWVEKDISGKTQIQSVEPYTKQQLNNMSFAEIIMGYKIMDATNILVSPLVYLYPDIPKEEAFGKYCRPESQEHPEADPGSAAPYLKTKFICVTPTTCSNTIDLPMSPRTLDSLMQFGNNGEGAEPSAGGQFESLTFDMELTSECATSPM
Myc binder – binders of human c-Myc, primary screen, biochemical, small molecule microarray, anti-His fluorescence; Myc proto-oncogene protein (Homo sapiens), P01106; His-c-Myc binding; calls only; 17,000 compounds, 1.5% hits;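 active = spot fluorescence over background with P-value below 7% in all four replicate spots, showing protein binding; compounds were printed on slides so no solution concentration is given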;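 also: score is binary with 100 for all four spots passing and 0 otherwise; about 2 pmol printed per array spot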
p53 mut binder – binders of human mutant p53, primary screen, biochemical, small molecule microarray, anti-GST fluorescence | mutant tumor protein p53 (GST-tagged), Homo sapiens | small molecule microarray binding | calls only | 17,000 compounds, 0.4% hits | AID 624136, 2012;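 active = compounds whose four printed spots each glow above background more than chance allows, each with a p-value under 7%; compounds were printed on slides so no solution concentration is given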;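 also: about 2 pmol printed per array spot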
Calls only; i = inactive; x = no result given; + = active, no number.

#	SMILES	ID4 SMM	STAT3 binder	Myc binder	p53 mut binder
1	COC(=O)C(C)Sc1nc(N2CCOCC2)nc(N2CCOCC2)n1 (stereo unspecified)	i	i	i	i
2	C[C@@H]1CN([C@H](C)CO)C(=O)c2cc(NS(=O)(=O)c3ccc(F)cc3)ccc2O[C@@H](C)CCCCO[C@@H]1CN(C)Cc1ccccc1	x	i	i	i
3	C[C@@H]1CN([C@@H](C)CO)C(=O)c2cc(NC(=O)NC3CCCCC3)ccc2O[C@H]1CN(C)C(=O)Nc1cccc2ccccc12	i	i	i	i
4	Cc1noc(C)c1NC(=O)Nc1cccc2c1O[C@@H](CN(C)Cc1ccc(Cl)c(Cl)c1)[C@H](C)CN([C@@H](C)CO)C2=O	i	i	i	i
5	Cc1noc(C)c1NC(=O)Nc1cccc2c1O[C@H](CN(C)Cc1ccncc1)[C@@H](C)CN([C@@H](C)CO)C2=O	i	i	i	i
6	COc1ccc(S(=O)(=O)Nc2cccc3c2O[C@@H](CN(C)C(=O)Nc2ccc(F)cc2)[C@@H](C)CN([C@@H](C)CO)C3=O)cc1	x	i	i	i
7	CCOC(=O)c1cnc(SCC(=O)Nc2ccccc2C)nc1N	i	i	i	i
8	C[C@@H]1CCCCO[C@@H](CN(C)Cc2ccncc2)[C@@H](C)CN([C@@H](C)CO)C(=O)c2cc(NC(=O)Cc3ccccc3)ccc2O1	i	i	i	i
9	Cc1cccc(OCCCC(=O)Nc2sc3c(c2C(N)=O)CCCC3)c1C	i	i	i	i
10	O=S(=O)(N[C@@H]1CCN(Cc2ccc(OCCO)cc2)C1)c1cc(C(F)(F)F)ccc1Cl	x	i	i	i
11	C[C@@H]1CN([C@H](C)CO)C(=O)Cc2cc(NC(=O)CCCN(C)C)ccc2O[C@H]1CN(C)C	i	i	i	i
12	CCO[C@H]1OC(C(=O)N2CCCC2)=C[C@@H](c2ccc(Br)cc2)[C@@H]1CCCO	x	i	i	i
13	C[C@@H]1CN([C@@H](C)CO)C(=O)c2cccc(NS(=O)(=O)c3cccs3)c2O[C@H]1CN(C)Cc1ccc(Oc2ccccc2)cc1	i	i	i	i
14	CC1CCC2(C)C(C(=O)O)=CCCC2C1(C)CCC1=CC(=O)OC1O (stereo unspecified)	x	i	i	i
15	NC(=O)c1ccc(-n2nnnc2SCC(=O)Nc2ccccc2-c2ccccc2)cc1	i	i	i	i
16	COc1ccc(C2C(C(=O)c3ccco3)C(=O)C(=O)N2CCN(C)C)cc1OC (stereo unspecified)	i	i	i	i
17	Cc1noc(C)c1NC(=O)N(C)C[C@H]1Oc2ccc(NC(=O)NC3CCCCC3)cc2C(=O)N([C@@H](C)CO)C[C@H]1C	i	i	i	i
18	CC(C)NC(=O)Nc1ccc2c(c1)C(=O)N([C@@H](C)CO)C[C@H](C)[C@@H](CN(C)C(=O)Nc1ccccc1)OCCCC[C@H](C)O2	i	i	i	i
19	C=C1C[C@@]23CC[C@@H]4[C@](C)(CO)CCC[C@@]4(C)[C@@H]2CC[C@@H]1C3	i	i	i	i
20	Cc1cccc(C)c1OCC(=O)Nc1ccccc1C#N	i	i	i	i
21	CCS(=O)(=O)N1CCC[C@@H]2CN3CCc4cc(OC)ccc4[C@@H]3C[C@@H]21	i	i	i	i
22	C[C@H]1CCCCO[C@H](CN(C)Cc2ccccc2)[C@@H](C)CN([C@@H](C)CO)C(=O)c2cc(NS(=O)(=O)c3cccs3)ccc2O1	i	i	i	i
23	COC(=O)c1c(NC(=S)NCc2cccnc2)sc(C)c1C	i	i	i	i
24	COc1ccc(NC(=O)Nc2ccc3c(c2)CC(=O)N([C@@H](C)CO)C[C@@H](C)[C@H](CN(C)Cc2ccc(-c4ccccc4)cc2)O3)cc1	x	i	i	i
25	c1ccc(Oc2cccc(OCCCn3cncn3)c2)cc1	i	i	i	i

Remaining list, next part:
#	SMILES	ID4 SMM	STAT3 binder	Myc binder	p53 mut binder
26	C[C@@H]1C(=O)O[C@H](C)[C@H]1C[C@@H](O)[C@](C)(O)[C@H]1CC[C@@]2(O)C3=CC(=O)[C@@H]4C[C@@H](O)[C@@H](O)C[C@]4(C)C3CC[C@]12C (stereo partly specified)	i	i	i	i
27	CCC(=O)Nc1nc2ccccc2n1CCCN(C)C	i	i	i	i
28	CC(C)NC(=O)N(C)C[C@H]1OCCCC[C@@H](C)Oc2ccc(NS(=O)(=O)c3ccccc3)cc2C(=O)N([C@H](C)CO)C[C@@H]1C	i	i	i	i
29	CNC[C@H]1Oc2ccc(N(C)C)cc2C(=O)N([C@H](C)CO)C[C@H]1C	i	i	i	i
30	C[C@H]1CN([C@@H](C)CO)C(=O)c2cccc(NC(=O)c3ccc(-c4nccs4)cc3)c2O[C@@H]1CN(C)S(=O)(=O)c1ccccc1	x	i	i	i
31	CC1(C)CC[C@]2(C(=O)O)CC[C@]3(C)C(=CCC4[C@@]5(C)C[C@@H](O)[C@H](O)[C@@](C)(CO)C5[C@H](O)C[C@]43C)[C@@H]2C1 (stereo partly specified)	i	i	i	i
32	C[C@@H]1CN([C@@H](C)CO)C(=O)c2cccc(NC(=O)Nc3ccc(F)cc3)c2O[C@@H]1CN(C)C(=O)NC1CCCCC1	i	i	i	i
33	COc1ccc(OCC(=O)Nc2ccc(OC)cc2[N+](=O)[O-])cc1	i	i	i	i
34	CC(CNC1CCCCC1)OC(=O)c1ccccc1 (stereo unspecified)	i	i	i	i
35	C[C@@H]1CN([C@H](C)CO)C(=O)c2cccc(N(C)C)c2O[C@@H]1CN(C)C(=O)Nc1cccc2ccccc12	i	i	i	i
36	Cc1c(Br)c([N+](=O)[O-])nn1CC(=O)Nc1ccc(F)cc1	i	i	i	i
37	Cc1noc(C)c1S(=O)(=O)Nc1ccc2c(c1)CC(=O)N([C@@H](C)CO)C[C@@H](C)[C@@H](CN(C)C(=O)Nc1ccccc1)O2	i	i	i	i
38	C[C@@H]1CN([C@@H](C)CO)C(=O)c2cccc(NC(=O)C3CCOCC3)c2O[C@H]1CN(C)Cc1ccc2c(c1)OCO2	i	i	i	i
39	C[C@@H]1CCCCO[C@H](CN(C)C(=O)NC2CCCCC2)[C@@H](C)CN([C@@H](C)CO)C(=O)c2cc(NS(=O)(=O)c3cn(C)cn3)ccc2O1	x	i	i	i
40	Oc1ccc2c(c1O)OCC1c3cc4c(cc3OC21)OCO4 (stereo unspecified)	i	i	i	i
41	C[C@@H]1CCCCO[C@@H](CN(C)S(=O)(=O)c2cccs2)[C@@H](C)CN([C@@H](C)CO)C(=O)c2cc(N(C)C)ccc2O1	i	i	i	i
42	CNC[C@@H]1OCc2cn(nn2)CCCC(=O)N([C@H](C)CO)C[C@H]1C	i	i	i	i
43	C[C@H]1CN([C@@H](C)CO)C(=O)Cc2cc(NS(=O)(=O)c3ccccc3)ccc2O[C@H]1CN(C)C(=O)Nc1cccc2ccccc12	i	i	i	i
44	CO[C@H]1O[C@H](CO)[C@@H](OC(=O)Nc2cccc(F)c2)[C@@H]2OC(=O)[C@@H](Cc3ccccc3)C/C=C/C[C@H](Cc3ccccc3)C(=O)O[C@@H]12	i	i	i	i
45	COc1ccc(S(=O)(=O)N(C)C[C@H]2Oc3c(NC(=O)c4cc(C)nn4C)cccc3C(=O)N([C@@H](C)CO)C[C@@H]2C)cc1	i	i	i	i
46	COc1ccc(S(=O)(=O)Nc2cccc3c2O[C@H](CN(C)C)[C@H](C)CN([C@@H](C)CO)C3=O)cc1	i	i	i	i
47	C[C@H]1CCCCO[C@@H](CN(C)C)[C@@H](C)CN([C@@H](C)CO)C(=O)c2cc(NC(=O)c3ccccc3)ccc2O1	i	i	i	i
48	COc1ccc(S(=O)(=O)Nc2ccc3c(c2)C(=O)N([C@H](C)CO)C[C@@H](C)[C@H](CN(C)Cc2ccncc2)OCCCC[C@@H](C)O3)cc1	x	i	i	i
49	C[C@H]1CN([C@@H](C)CO)C(=O)c2cccc(NC(=O)C3CCOCC3)c2O[C@@H]1CN(C)S(=O)(=O)c1ccc(F)cc1	x	i	i	i
50	COc1ccc(NC(=O)N(C)C[C@H]2Oc3c(NC(=O)Nc4c(C)noc4C)cccc3C(=O)N([C@H](C)CO)C[C@H]2C)cc1	x	i	i	i

(cont.)
#	SMILES	ID4 SMM	STAT3 binder	Myc binder	p53 mut binder
51	CCC1(C)Cc2ccccc2-c2nc3[nH]nc(SCC(=O)Nc4ccc(OC)c(Cl)c4)n3c(=O)c21 (stereo unspecified)	i	i	i	i
52	COc1ccc(CNCCCN2CCOCC2)cc1OC	i	i	i	i
53	O=C1C2C=C(Br)[C@H](C[C@@H]2OCCCCCCO)[C@@]12CO2	i	i	i	i
54	C[C@@H]1CN([C@@H](C)CO)C(=O)Cc2cc(NS(=O)(=O)c3ccc(Cl)cc3)ccc2O[C@H]1CN(C)C(=O)Nc1ccc(F)cc1	i	i	i	i
55	O=C(COc1cccc(-c2cnc3ccccc3n2)c1)c1ccccc1	i	i	i	i
56	C[C@@H]1CCCCO[C@H](CN(C)C(=O)C2CCCCC2)[C@@H](C)CN([C@H](C)CO)C(=O)c2cc(NC(=O)Nc3ccccc3)ccc2O1	i	i	i	i
57	C[C@H](CO)N1C[C@H](C)[C@@H](CN(C)S(=O)(=O)c2ccc(Cl)cc2)Oc2c(NC(=O)NC3CCCCC3)cccc2C1=O	i	i	i	i
58	O=Nc1c(-c2c(O)[nH]c3ccc(S(=O)(=O)O)cc23)[nH]c2ccccc12	x	i	i	i
59	Cc1ccc(S(=O)(=O)NCCC(=O)Oc2ccc3c(=O)c(-c4ccc(F)cc4)coc3c2)cc1	i	i	i	i
60	N#C/C(=C/c1ccc(O)c(O)c1)C(=O)OC/C=C/c1ccccc1	i	i	i	i
61	C=C1C(=O)O[C@@H]2/C=C(\CO)CCC/C(C)=C/[C@H](O)C12 (stereo partly specified)	x	i	i	i
62	COc1ccc(NC(=O)Nc2ccc3c(c2)C(=O)N([C@H](C)CO)C[C@@H](C)[C@@H](CN(C)S(=O)(=O)c2ccc(OC)cc2)O3)cc1	i	i	i	i
63	COCc1nc2ccccc2n1CCOc1ccc(Br)cc1	i	i	i	i
64	CC(C)C[C@](O)(C(=O)OCc1ccc(O[C@@H]2O[C@H](CO)[C@@H](O)[C@H](O)[C@H]2O)cc1)[C@H](O)C(=O)OCc1ccc(O[C@@H]2O[C@H](CO)[C@@H](O)[C@H](O)[C@H]2O)cc1	x	i	i	i
65	C[C@@H]1CN([C@H](C)CO)C(=O)Cc2cc(NC(=O)NC3CCCCC3)ccc2O[C@H]1CN(C)C(=O)Nc1ccc(F)cc1	i	i	i	i
66	C[C@H](CO)N1C[C@H](C)[C@H](CN(C)S(=O)(=O)c2ccc(F)cc2)OCCCC[C@H](C)Oc2ccc(NC(=O)CCCCCC(=O)Nc3ccccc3N)cc2C1=O	x	i	i	i
67	O=C1C(Cl)=C(NCCN2CCOCC2)C(=O)c2ncccc21	i	i	i	i
68	C[C@H]1CCCCO[C@@H](CN(C)C)[C@@H](C)CN([C@@H](C)CO)C(=O)c2cc(NC(=O)Nc3ccc(F)cc3)ccc2O1	i	i	i	i
69	Cc1ccc(OCCn2cncn2)c([N+](=O)[O-])c1	i	i	i	i
70	O=C(COc1ccc(Br)cc1)Nc1cccc(-c2nc3ccccc3o2)c1	i	i	i	i
71	Cc1noc(C)c1NC(=O)Nc1ccc2c(c1)C(=O)N([C@@H](C)CO)C[C@H](C)[C@H](CN(C)C)O2	i	i	i	i
72	C[C@@H]1CCCCO[C@@H](CN(C)S(=O)(=O)c2ccc(Cl)cc2)[C@@H](C)CN([C@H](C)CO)C(=O)c2cc(NC(=O)CCCN(C)C)ccc2O1	x	i	i	i
73	COC(=O)c1cc(OC)c(OC)cc1NC(=S)N1CCC(C(N)=O)(N2CCCCC2)CC1	+	i	i	i
74	CC(=O)c1ccccc1OCC(O)CNC1CCCC1 (stereo unspecified)	i	i	i	i
75	CC#CCc1cc2ccccc2c(=O)o1	x	i	i	i
76	CC(C)(C)C(=O)CSc1nnc(-c2ccco2)n1Cc1ccco1	i	i	i	i
77	c1ccc2c(c1)OCC(c1nn3c(Cn4cnc5ccccc54)nnc3s1)O2 (stereo unspecified)	i	i	i	i
78	O=C(Nc1ccccc1)N[C@H](Cc1ccccc1)Cn1cc(CN2C(=O)COC[C@H]2c2ccccc2)nn1	+	i	i	+

An excerpt; the hit share may differ from the screen's.
